# Source: PubChem
# PK Bst: pyruvate kinase (B. stearothermophilus) modulation; partly purified Bacillus stearothermophilus pyruvate kinase, luminescence ATP production; ribose 5-phosphate activator present at AC10; Potency, µM; 51,000 tested, 1.2% active; AID 361; in the data active means potency below about 11 µM; inconclusive means mostly about 12 µM to 25 µM; inactive means weaker than that;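 the screen sought inhibitors and activators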;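 further: potency means the concentration at half of the fitted maximal effect; scaled between full activation by ribose 5 phosphate and full inhibition by luteolin; about four in five hits inhibit and the cells do not say which; series up to 57 µM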
# TsaE inh: displaces an ADP probe from E. coli YjeE (TsaE) | 71,000 tested, 0.05% active | P0AF67 | purified YjeE, fluorescence polarisation of a bound ADP probe | Potency, µM; active = well fitted falling curve; inconclusive = weaker or top-dose-only fall, or a rising curve; inactive = flat or poorly fitted curve;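 further: top concentration of the series not given in the record; excess ADP was the control for the full effect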
#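 Fluorescence polarization of a BODIPY Texas Red–ADP probe (2 uM) bound to purified YjeE (10 uM) was read after 15 min room-temperature incubation with compounds. Loss of polarization marks inhibitors; ADP serves as titrated control.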
# Active calls of the source: *; i = inactive; · = no result given. Not all compounds are listed; the hit share may differ from the screen's.
item	canonical_smiles	PK Bst	TsaE inh
1	C=CCn1c(O)c(C(C)=NCCN2CCOCC2)c(=O)[nH]c1=O	>57	i
2	Cn1c(O)c(C(=NCCN2CCCCC2)c2ccccc2Cl)c(=O)n(C)c1=O	·	i
3	c1cc(CN2CCCC3(CCNCC3)C2)ccn1	·	i
4	N[C@H](Cn1cc(I)c(=O)[nH]c1=O)C(=O)O	·	i
5	COC(=O)C(c1ccccc1)N1CCCCCC1 (stereo unspecified)	>25.6	·
6	COc1ccc(C(=O)C(Cc2ccccc2)N(C)C)cc1 (stereo unspecified)	>57	i
7	OC(c1ccc(F)cc1)C(c1ccccc1)N1CCOCC1 (stereo unspecified)	>11.4	·
8	O=c1[nH]c(=O)n(Cc2ccc(F)cc2)c(O)c1C=NCCN1CCCCC1	>57	i
9	CC(=NCCCN1CCOCC1)c1c(O)n(Cc2ccccc2)c(=O)[nH]c1=O	>57	i
10	COC[C@@H]1OC(=O)c2coc3c2[C@]1(C)C1=C(C3=O)[C@H]2CCC(=O)[C@]2(C)C[C@@H]1OC(C)=O	·	i
11	CN1Cc2ccccc2[C@@H]2c3cccc4[nH]cc(c34)C[C@H]21	·	i
12	COc1ccc(C2=NCC(=O)N(CC(=O)NCc3ccco3)c3sc4c(c32)CCCC4)cc1	>57	i
13	O=c1[nH]c(=O)n(CCC2=CCCCC2)c(O)c1C=NC1CCN(Cc2ccccc2)CC1	>57	i
14	CC(C)[C@@]1(NC(=O)[C@@H]2C[C@H]3c4cccc5[nH]cc(c45)C[C@@H]3N(C)C2)O[C@]2(O)[C@H]3CCCN3C(=O)[C@H](Cc3ccccc3)N2C1=O	·	i
15	COC(=O)Nc1cccc(OC(=O)Nc2cccc(C)c2)c1	·	i

# The results go on.
item	canonical_smiles	PK Bst	TsaE inh
16	O=C(COc1ccc(Cl)cc1)N1CCN(Cc2ccccc2)CC1	·	i
17	Oc1c(Cl)cc(Cl)cc1CN1CCN(Cc2ccccc2)CC1	·	i
18	Cc1ccc(C2(O)CC(C)N(C)CC2C)cc1 (stereo unspecified)	>57	i
19	O=C(CN1CC=C(c2ccccc2)CC1)NC(=O)NCc1ccco1	>57	i
20	CC1(C)CN=C(Nc2nc3ccccc3s2)S1	·	i
21	CC1=NOC2(C)Nc3ncnn3C(c3ccccc3)C12 (stereo unspecified)	>11.4	·
22	COc1cc(C2NCc3ccccc3-n3cccc32)ccc1O (stereo unspecified)	>57	i
23	Cc1nc2cc(C(F)(F)F)ccc2n1C1CCN(Cc2nnnn2Cc2ccc3c(c2)OCO3)CC1	>57	i
24	C[N+]1(C)C2CC[C@H]1CC(OC(=O)[C@@H](CO)c1ccccc1)C2 (stereo partly specified)	·	i
25	COc1cc2c(c(OC)c1OC)-c1ccc(O)c(=O)cc1[C@@H](NC(C)=O)CC2	·	i
26	Cn1c(O)c(C=NCCCNC2CCCCC2)c(=O)n(C)c1=O	>11.4	·
27	COc1ccc(CN2CCN(C(=O)COc3cccc(C)c3)CC2)c(OC)c1	>57	i
28	Cc1coc2c1CCC(C)C2 (stereo unspecified)	·	i
29	C[C@]12CC[C@H](O)C[C@@H]1CC[C@H]1[C@H]2CC[C@]2(C)[C@H](C(=O)CO)CC[C@@H]12	·	i
30	CCCCOC(=O)c1ccccc1C(=O)OCc1ccccc1	·	i

# (list continues)
item	canonical_smiles	PK Bst	TsaE inh
31	Cc1ccc(C)c(NC2=NCCCS2)c1	>57	i
32	COC(=O)[C@]1(C)C[C@H]1[C@H](NP(=O)(c1ccccc1)c1ccccc1)c1ccccc1	·	i
33	CN1[C@@H]2CC[C@H]1CC(OC(=O)c1cc(Cl)cc(Cl)c1)C2 (stereo partly specified)	·	i
34	C[C@@]12CC[C@H]3[C@@H](CCC4=C(O)C(=O)CC[C@]43C)[C@H]1CCC2=O	·	i
35	Cc1ccc2nc(N3CCN(C)CC3)[nH]c2c1	·	i
36	CCNCCC1(CC)C(=O)NC(=O)NC1=O	·	i
37	CCC(=NCc1cccnc1)c1c(O)n(Cc2ccccc2)c(=O)[nH]c1=O	>57	i
38	CC(=O)Nc1ccc2c(c1)CC1(C(=O)N(C)C(=O)N(C)C1=O)C1CCCN21 (stereo unspecified)	>57	i
39	CC[C@@]1(O)C(=O)OCc2c1cc1n(c2=O)Cc2cc3c(NC(=O)CN)cccc3nc2-1	·	i
40	Clc1cccc(CN2CCCCC2c2cccnc2)c1 (stereo unspecified)	·	i
41	CNCCc1cnc[nH]1	·	i
42	COC(=O)C(C)Oc1cc(C)cc2oc(=O)c3c(c12)CCC3 (stereo unspecified)	>57	i
43	c1ccc(N2CCCC3(CCNCC3)C2)cc1	·	i
44	O/N=C/c1c[nH]c2ccccc12	·	i
45	O=C1CC(=O)N(c2ccc(Cl)cc2Cl)C(=O)N1	·	i

# Further records follow.
item	canonical_smiles	PK Bst	TsaE inh
46	Cc1cccnc1NC1=NCC(C)S1 (stereo unspecified)	>57	i
47	CC(=NCC1CCCO1)c1c(O)n(Cc2ccccc2)c(=O)[nH]c1=O (stereo unspecified)	>57	i
48	CC12CN3CCN(CC(C3)C1O)C2 (stereo unspecified)	>57	i
49	COCCCNC(=O)c1c(NC(=O)c2ccco2)n(Cc2ccccc2)c2nc3ccccc3nc12	>57	i
50	O=[N+]([O-])c1ccccc1-c1ccccc1	·	i
51	CCOP(=O)(OCC)OCC	·	i
52	CCn1cnc2c(Nc3cccc(Cl)c3)nc(N[C@@H]3CCCC[C@H]3N)nc21	·	i
53	CN1CCC(O)(c2ccccc2)C2CCCC21 (stereo unspecified)	>57	i
54	O=C(Cc1ccccc1)N1CCN(CC2CC=CCC2)CC1 (stereo unspecified)	>57	i
55	CC1OC(NCCc2ccccc2)C(O)C(O)C1O (stereo unspecified)	>57	i
56	O=C(OC1CCN(CCCl)CC1)C(c1ccccc1)c1ccccc1	·	i
57	CCNCC1(c2ccc(OC)c(OC)c2)CCCC1	>57	i
58	O=C1C2CCCN2C(c2cccnc2)N1c1ccc(Cl)c(Cl)c1 (stereo unspecified)	>57	i
59	NC(=O)CI	·	i
60	CC[C@@]1(c2ccc(N)cc2)CCC(=O)NC1=O	·	i

# The listing continues:
item	canonical_smiles	PK Bst	TsaE inh
61	C[C@H]1C[C@@H](C)C(=O)[C@@H]([C@H](O)CC2CC(=O)NC(=O)C2)C1	·	i
62	O=[N+]([O-])c1c(Cl)c(Cl)cc(Cl)c1Cl	·	i
63	CCCCN1C(=O)NC(=O)C2(Cc3c(nc4c(C)cccn4c3=O)N3CCc4ccccc4C32)C1=O (stereo unspecified)	>57	i
64	CCOC(=O)CN1C(=O)C2(C(C#N)=C(N)Oc3ccccc32)C(C(=O)OC)=C1C (stereo unspecified)	>57	i
65	N#C/C(=C\c1ccc(O)c(O)c1)C(N)=S	·	i
66	O=C(O)[C@H]1C2c3ccccc3C(c3ccccc32)[C@@H]1C(=O)NCC1CC1	·	i
67	Nn1cnnc1	·	i
68	c1cncc(C2CC(c3cccs3)n3ncnc3N2)c1 (stereo unspecified)	>57	i
69	CN(C)C1(c2nnnn2-c2ccc(Cl)cc2)CCCCC1	·	i
70	O=C1NC(=O)C2(Cc3ccccc3N3CCCC32)C(=O)N1c1ccc(Cl)cc1 (stereo unspecified)	>57	i
71	Nc1ccc([N+](=O)[O-])cc1N	·	i
72	O=P(/C(=N/O)N1CCCCC1)(N1CCOCC1)N1CCOCC1	>57	i
73	CCC(=Nc1ccc2c(c1)CCC2)c1c(O)n(C)c(=O)n(C)c1=O	>57	i
74	O=C(c1ccc(CS(=O)(=O)c2ccc(Br)cc2)o1)N1CCC2(CC1)OCCO2	>57	i
75	COC1=C[C@H]2C3=C([C@H]2C1=O)[C@H](NC(C)=O)CCc1cc(OC)c(OC)c(OC)c13	·	i

# In a second layout: entries from further up.
(64) CCOC(=O)CN1C(=O)C2(C(C#N)=C(N)Oc3ccccc32)C(C(=O)OC)=C1C (stereo unspecified)
  PK Bst: >57
  TsaE inh: i

(65) N#C/C(=C\c1ccc(O)c(O)c1)C(N)=S
  PK Bst: ·
  TsaE inh: i

(66) O=C(O)[C@H]1C2c3ccccc3C(c3ccccc32)[C@@H]1C(=O)NCC1CC1
  PK Bst: ·
  TsaE inh: i

(67) Nn1cnnc1
  PK Bst: ·
  TsaE inh: i

# Carrying on.
item	canonical_smiles	PK Bst	TsaE inh
76	Oc1c(Cl)c(Cl)c(Cl)c(Cl)c1Cl	·	i
77	COc1ccc2[nH]cc(C3=CCNCC3)c2c1	·	i
78	O=C(CCCCCn1c(=S)[nH]c2ccccc2c1=O)N1CCC2(CC1)OCCO2	>57	i
79	c1cc2ccc3cccc4ccc(c1)c2c34	·	i
80	COc1cc(CC2C(=O)N(C)C(=O)N(C)C2=O)ccc1OCc1ccccc1	·	i
81	C[C@@H]1[C@@H]2Cc3ccc(O)cc3[C@@]1(C)CCN2CC1CC1	·	i
82	Cc1ccccc1NC1=NCC(C)S1 (stereo unspecified)	>57	i
83	Cc1nc2ccccc2c(=O)n1-c1cccnc1	>57	i
84	Nc1ccccc1C(=O)OCCc1ccccc1	·	i
85	COc1ccc2[nH]c3c(c2c1)CCN=C3C	·	i
86	CCN1CCN(c2nc3c(c(=O)[nH]2)CCCC3)CC1	>57	i
87	COC(=O)CCCNC(=O)CN1CC(c2ccccc2)CC1=O (stereo unspecified)	>57	i
88	CCCCOC(=O)c1ccccc1N	·	i
89	CC1=CC(=O)C2=C(C)C[C@@H](O)[C@@H]3[C@@H](OC(=O)[C@H]3C)[C@H]12	·	i
90	C1CCC(NC2CCCCC2)CC1	·	i

# (further entries)
item	canonical_smiles	PK Bst	TsaE inh
91	O[C@H]1CCCC[C@H]1N1CCC(c2ccccc2)CC1	·	i
92	C=CCOC(=O)c1ccccc1N	·	i
93	O=C(Oc1ccccc1)N1CCC[C@@]2(CCN(C(c3ccccc3)c3ccccc3)C2)C1	·	i
94	COC(=O)N1CCC2(CCCN(C)C2)CC1	·	i
95	Cc1cccn2c(NCC3CCCO3)c(C(C)C)nc12 (stereo unspecified)	>57	i
96	CCC/C(=N\O)c1c[nH]c2ccccc12	·	i
97	c1csc(CN2CCCC3(CCNCC3)C2)n1	·	i
98	CCCCn1c(NC(=O)c2ccco2)c(C(=O)OCC)c2nc3ccccc3nc21	>57	i
99	COc1cc(C(=O)OC2C[C@H]3CC[C@@H](C2)N3C)ccc1O (stereo partly specified)	·	i
100	CC(C)(Cc1c[nH]c2ccc(Cl)cc12)NCCOc1ccccc1OCC1CC1	·	i
101	CC(C)=CCSc1nnc([C@@H](N)Cc2c[nH]c3ccccc23)o1	>57	i
102	CC(=O)c1cccc(OCC(O)CN2CC=C(c3ccccc3)CC2)c1 (stereo unspecified)	>57	i
103	C=CCN1CC[C@]23c4c5ccc(O)c4O[C@@H]2/C(=N/NC(=O)c2ccccc2)CC[C@@]3(O)[C@H]1C5	·	i
104	C#CCN[C@@H](C)Cc1ccccc1	·	i
105	C[C@H]1CCC[C@H](O)CCCCCc2cc(O)cc(O)c2C(=O)O1	>57	i

# New compounds follow:
item	canonical_smiles	PK Bst	TsaE inh
106	C=C1N2CCC(CC2)C1(O)c1ccccc1C (stereo unspecified)	>57	i
107	C(#CCN1CCCC1)CN1CCCC1	·	i
108	COc1ccc2c(c1OC)C(=O)OC2c1c(O)n(C2CCCCC2)c(=O)[nH]c1=O (stereo unspecified)	>25.6	·
109	Fc1ccc2c(c1)nnn2C1CCN(Cc2nnnn2CCc2ccccc2)CC1	>57	i
110	CC(C)NC(=O)N1CC[C@@]2(CCCNC2)C1	·	i
111	O=[As](O)(O)c1ccc(N=Nc2ccc(O)cc2)cc1	·	i
112	CN(C)c1nc(OCCNC(=O)COc2ccc(Cl)cc2Cl)nc(N2CCCCC2)n1	>57	i
113	CN(C)C(=O)Nc1cccc(C(F)(F)F)c1	·	i
114	O=C(Nc1cccc(F)c1)N1CC2(CCNCC2)C1	·	i
115	Cc1ccc(S(=O)(=O)N2CCCC(C(=O)N3CCC4(CC3)OCCO4)C2)cc1 (stereo unspecified)	>57	i
116	CC1=C2[C@@H]3OC(=O)[C@@H](C)[C@@H]3CC[C@]2(C)C=CC1=O	·	i
117	CC1(C)CC(n2[nH]c(=O)c3c2NC(=O)CSC3c2ccccc2)CCO1 (stereo unspecified)	>25.6	·
118	CCOc1ccc(-n2c(CC)nc3ccccc3c2=O)cc1	·	i
119	COC(=O)N1CCN(C(=O)Cc2ccc(Cl)c(Cl)c2)[C@H](CN2CCCC2)C1	·	i
120	Cc1cc(OCC(=O)Nc2c(C)n(C)n(-c3ccccc3)c2=O)c2c3c(c(=O)oc2c1)CCC3	>57	i

# The list continues.
item	canonical_smiles	PK Bst	TsaE inh
121	N#Cc1ccccc1Cn1cc(C(=O)c2ccco2)c2ccccc21	>57	i
122	c1ccc(CCN2CCC(N3CCN(c4ccccc4)CC3)CC2)cc1	·	i
123	CC(C)[N+](C)(CCC(C(N)=O)(c1ccccc1)c1ccccc1)C(C)C	·	i
124	COc1ccc2c(c1O)-c1c(OC)c(OC)cc3c1[C@@H](C2)N(C)CC3	·	i
125	C[C@@H]1CC[C@@H]2N(C1)C[C@H]1[C@@](O)([C@H](O)C[C@]3(O)[C@H]4CC[C@H]5[C@]6(O)O[C@]4(C[C@]13O)[C@@]5(C)CC[C@@H]6O)[C@@]2(C)O	·	i
126	CCn1c(O)c(C=NCCc2c[nH]c3ccccc23)c(=O)[nH]c1=O	>57	i
127	CCOC(=O)C1CCCCC12C(C#N)=C(N)Oc1n[nH]c(C)c12 (stereo unspecified)	>57	i
128	C(=C/c1ccccc1)/CN1CCN(CCOC(c2ccccc2)c2ccccc2)CC1	·	i
129	CC1=[N+]([O-])C2(N)CCc3nonc3C2(O)C1 (stereo unspecified)	·	i
130	Nc1nc(N)c(Cn2ccnc2)c(=O)[nH]1	·	i
131	O=C1C2CCN(CC2)C1(CO)CO	·	i
132	CCCCCCOc1ccc(CN2CCN(CCO)CC2)cc1	·	i
